2A Renilla: FMDV 2A StopGo reporter, Renilla signal. HEK cells with a luciferase reporter of 2A StopGo recoding. Potency, µM (series often up to 57.5 µM), inactives show top-dose signal change, negative = less light. actives 0.32% (n = 120,000). AID 1745857; active means well fitted falling curve with a large enough effect; inconclusive means small, poorly fitted or top-dose-only effect; inactive means no such curve, though single readings can be large or run the other way; also: nearly all actives have a fitted effect of over 55% in size; overnight with compound
2A firefly: FMDV 2A StopGo reporter, firefly signal | Potency, µM (titrated, usually from 57.5 µM), without a hit: top-dose signal change, negative = less light | HEK cells with a luciferase reporter of 2A StopGo recoding | AID 1745856 | actives 0.23% (n = 120,000); active = well fitted falling curve with a large enough effect; inconclusive = small, poorly fitted or top-dose-only effect; inactive = no such curve, though single readings can be large or run the other way; also: nearly all actives have a fitted effect of over 60% in size; overnight with compound
An asterisk follows results filed as active; ? = inconclusive; & = joins results of further samples; [ ] = dose if it differs, or a comment. % is scaled to controls: 0 for no effect and ±100 for the full control effect; potency is read from the fitted curve at half-maximal effect. Some of the compounds tested; count on the stated rates, not on these rows.

compound | 2A Renilla | 2A firefly
Cc1c(O)ccc2c(CN3CCN(C)CC3)cc(=O)oc12 | -2%&-12% | -3%&-9%
COc1ccc(C2C(C#N)=C(C)NC3=C2C(=O)CC(C)(C)C3)cc1OC (stereo not given) | 34%[activator] | 41%
O=C(NNC(=S)Nc1ccccc1)c1ccc(NC(=O)C2CC2)cc1 | 4% | ?
CCc1cc(CC)n(-c2nc3c(c(=O)n(CC(N)=O)c(=O)n3C)n2C)n1 | 11% | -5%
Cc1nsc(N)c1C(=O)N(C)CCOc1ccccc1Cl | -7% | 2%
CCn1ccc2cc(S(=O)(=O)N3CCC(C(=O)NCCc4ccc(SC)cc4)CC3)ccc21 | -19% | -12%
Cc1nnc(NC(=O)CCc2ccc(-c3ccc(C)c(C)c3)o2)s1 | -9% | 7%
Cc1nsc(N)c1C#N | 19% | 29%
CC(C)Oc1ccc(-c2nc(N3CCCCC3)c3ccccc3n2)cc1 | 4% | 68%[activator]
Cc1cc(C)cc(NC(=O)CCc2c(C)nc3c(c2C)c(=O)n(C)c(=O)n3C)c1 | -7% | -26%
COc1ccc(NC(=O)CN(Cc2ccccc2)S(=O)(=O)c2ccc3nc(C)sc3c2)cc1 | 22% | -2%
O=C(CN1CCN(c2nc(C(F)(F)F)nc3ccccc23)CC1)NC1CC1 | -15% | -10%
Cc1ccccc1CN1CCN(c2nc3c(c(=O)[nH]c(=O)n3C)n2Cc2ccc(F)cc2)CC1 | -9% | -7%
Cc1ccccc1NC(=O)Cn1cc(S(=O)(=O)N2CCCC2)c(S(=O)(=O)N2CCCC2)c1 | 9% | -12%
Cc1nn2c(NCCN(C)C)cc(C(C)C)nc2c1-c1ccccc1 | -3% | -5%
CC(Sc1ccc2c(c1)OCCCO2)C(=O)Nc1ccccc1-c1ccccc1 (stereo not given) | 7% | -10%
CCOC(=O)c1ccc(NC(=O)CCCn2c(=O)c3cccn3c3cccnc32)cc1 | -15% | -16%
O=C(COCc1cc(-c2cccs2)on1)Nc1cccc(Cl)c1Cl | 39%[activator] | 18%
CCOc1ccc(CCNC(=O)C(C)n2nc(C)n3c(cc4sccc43)c2=O)cc1OCC (stereo not given) | 9% | -7%
COc1ccccc1NC(=O)c1cc(=O)c(OCc2ccc(Cl)cc2)co1 | 18% | 28%
COc1cccc(CNC(=O)[C@H](CC(C)C)NC(=O)N2CCn3c2nc2ccccc23)c1 | 7% | -18%
N#C/C(=C\c1cccn1-c1ccc(Br)cc1)c1ccc(F)cc1 | 10% | 9%
O=C(NCC(c1cccnc1)N1CCc2ccccc21)C(=O)Nc1ccccc1F (stereo not given) | ? | 0%
COc1ccc(NC(=O)CSc2nc3ncccc3[nH]2)c(OC)c1 | 94%[activator] | 17%
Cc1cc(=O)n2c3ccccc3n(CC(O)CNc3ccc(C(C)C)cc3)c2c1C#N (stereo not given) | -2% | 5%

compound | 2A Renilla | 2A firefly
CCOC(=O)CNC(=O)c1ccccc1OCC | 4% | 7%
COc1ccc(C2=CC(c3cc(Br)ccc3F)n3c(nc4ccccc43)N2)cc1 (stereo not given) | 13% | -32%
COc1cc(/C=C/c2nc(C#N)c(NC3CC3)o2)cc(OC)c1OC | 26% | 34%[activator]
O=C(OCC(=O)N(Cc1ccccc1)Cc1ccccc1)c1ccc2ccccc2n1 | 8% | 10%
CC(C)Cn1nc(C(=O)Nc2ccc3c(c2)CCC3)c2ccccc2c1=O | 1% | 135%[activator]
CCc1nc2ccccc2c(C(=O)OCC(=O)NC2(C#N)CCCC2)c1C | 39%[activator] | 25%
Cc1ccc(-c2nc(C)c(CCNS(=O)(=O)c3ccccc3F)s2)cc1 | 115%[activator] | 88%[activator]
Fc1ccccc1OCc1nc2ccccc2n1C(F)F | 6% | 0%
c1ccc(-c2ccc(CNCc3ccco3)cc2)cc1 | 6% | 138%[activator]
Cc1ccc(Nc2ncnc3sc4c(c23)CCC(C)C4)cc1C (stereo not given) | 2% | -3%
O=C(CSc1ncc(-c2ccccc2)o1)Nc1cccc(F)c1 | 2% | 0%
Cc1ccc(-n2cc(C(=O)c3cc(C)ccc3O)cc(C#N)c2=O)cc1 | 14% | 6%
O=C(Nc1c(F)cccc1F)C12CC3CC(CC(C3)C1)C2 | 12% | 3%
CCCOc1ccc(C(=O)Nc2cccc(-c3nc4ccccc4[nH]3)c2)cc1 | 1% | 94%[activator]
CCCCn1c(SCC(N)=O)nc2c1c(=O)[nH]c(=O)n2C | 15% | 18%
O=C(NC1CCCCCC1)c1cc2c(F)cccc2s1 | 65%[activator] | 91%[activator]
N#Cc1nc(COc2ccc(F)cc2)oc1NCc1cccnc1 | -3% | 66%[activator]
CC1CCN(CC(C)OC(=O)c2cccs2)CC1 (stereo not given) | -10% | -1%
COc1ccc(OC)c(CNS(=O)(=O)c2c(C(=O)N3CCCCCC3)c(C)n(C)c2C)c1 | 78%[activator] | -5%
COc1ccc(-c2cc(C(=O)Oc3ccc(F)cc3)no2)cc1 | -4% | 8%
Cn1c(=O)[nH]c(=O)c2c1nc(N1CCN(Cc3ccccc3Cl)CC1)n2Cc1ccc(F)cc1 | -3% | 1%
C=CCOc1nc2c(c(=O)n(C)c(=O)n2C)n1Cc1c(Cl)cccc1Cl | -1% | -6%
Cc1c(OCC(=O)C(C)(C)C)ccc2c3c(c(=O)oc12)CCC3 | 22% | 0%
Cc1cc(Nc2ccccc2)c2c([N+](=O)[O-])ccc(C)c2n1 | 22% | 0%
Cc1cccc(Cn2nnc3c(=O)[nH]c(C4CCCN(C(=O)c5ccc(C(C)(C)C)cc5)C4)nc32)c1 (stereo not given) | 86%[activator] | -15%

compound | 2A Renilla | 2A firefly
Cc1ccc(S(=O)(=O)c2nnn3c2nc(N2CCN(c4ccccc4F)CC2)c2cc(Cl)ccc23)cc1C | 6% | -6%
COc1ccc(C2CCCCCN2C(=O)NCCn2ccnc2)cc1 (stereo not given) | 0% | -6%
Cc1noc(C(C)C)c1C(=O)NCc1ccc(OC(C)C)nc1 | -6% | 4%
CCOC(=O)c1ccc(N2CCN(c3cccc(Cl)c3)CC2)c(NC(=O)Nc2ccc(OC)cc2OC)c1 | -16% | -22%
O=C1CN(C(=O)CCc2c[nH]c3ccccc23)CCN1 | 2% | 13%
O=C(CN1C(=O)COc2ccc(S(=O)(=O)N3CCCCCC3)cc21)N1CCN(c2cccc(Cl)c2)CC1 | 0% | -14%
CC(=O)c1cccc(NC(=O)CSc2ncc3c(n2)-c2cc(Cl)ccc2N(Cc2ccccc2)S3(=O)=O)c1 | 75%[activator] | 27%
O=c1[nH]nc(-c2ccco2)c2c1Nc1nnnn1C2c1cccc(F)c1 (stereo not given) | 0% | 75%[activator]
CCOc1ccc(-n2ccnc(NCc3ccccc3)c2=O)cc1 | -7% | 8%
CCn1cc(C(=O)NCCCOC(C)C)c(=O)c2cc(S(=O)(=O)N3CCOCC3)ccc21 | -3% | -6%
Cc1ccc(-c2nc(CN3CCCC3c3nnc4ccccn34)co2)cc1 (stereo not given) | 3% | 19%
Cc1ccc(/C=C/c2onc(C)c2S(=O)(=O)N2CCC(C(=O)N3CCOc4ccc(C)cc43)CC2)cc1 | -13% | 0%
COc1cc(-c2nc(-c3ccccc3)c(-c3ccc(Br)cc3)[nH]2)cc(OC)c1O | 7% | 18%
COc1cc(Nc2nc(SCc3cccc(Cl)c3)nc3ccccc23)cc(OC)c1 | -14% | -23%
N#Cc1ccc(S(=O)(=O)N2CCC(C(=O)Nc3ccnn3Cc3ccccc3Cl)CC2)cc1 | 7% | -23%
CC(C)c1ccccc1NC(=O)C1CC=CCC1 (stereo not given) | 3% | -5%
Fc1cccc(Cl)c1CSc1nc(CN2CCOCC2)nc2ccccc12 | -25% | -21%
O=C(COc1ccc(Cl)cc1)NCC(c1ccco1)S(=O)(=O)c1ccccc1 (stereo not given) | 31%[activator] | -16%
CC(=O)NC12CC3(C)CC(C)(CC(C)(C3)C1)C2 | 7% | 1%
O=c1cc(COc2ccc(-c3ccccc3)cc2Cl)nc2sccn12 | -4% | 23%
CCC1CCCCN1C(=O)CS(=O)(=O)Cc1coc(-c2cccc(F)c2)n1 (stereo not given) | 7% | 3%
CC1(C)CC(=O)C2=C(C1)OC(N)=C(C#N)C2c1ccc(Br)o1 (stereo not given) | 13% | 11%
Cc1ccc(-n2c(SCC(=O)Nc3ccc(Cl)cc3)nc3c(=O)[nH]cnc32)cc1 | 32%[activator] | 29%
CCCCCCn1c(CN2CCN(CC)CC2)nc2c1c(=O)n(C)c(=O)n2C | 3% | 10%
CCOc1ccc(OCC)c(NS(=O)(=O)c2cc(Br)cc3c2N(C(C)=O)C(C)C3)c1 (stereo not given) | 244%[activator] | -7%

Entries shown so far with a thiophene ring, fused or not:
compound | 2A Renilla | 2A firefly
O=C(COCc1cc(-c2cccs2)on1)Nc1cccc(Cl)c1Cl | 39%[activator] | 18%
CCOc1ccc(CCNC(=O)C(C)n2nc(C)n3c(cc4sccc43)c2=O)cc1OCC (stereo not given) | 9% | -7%
Cc1ccc(Nc2ncnc3sc4c(c23)CCC(C)C4)cc1C (stereo not given) | 2% | -3%
O=C(NC1CCCCCC1)c1cc2c(F)cccc2s1 | 65%[activator] | 91%[activator]
CC1CCN(CC(C)OC(=O)c2cccs2)CC1 (stereo not given) | -10% | -1%

Additional entries.
Every second line gives: 2A Renilla	2A firefly
COCCN1C(=O)C(=O)/C(=C(/O)c2ccc(Cl)cc2)C1c1ccc(OC)cc1 (stereo not given)
 : 35%[activator]	45%[activator]
CC(=O)Nc1ccc(NC(=O)CC2Sc3ccccc3NC2=O)cc1 (stereo not given)
 : 35%[activator][1.06 µM]	?
Nc1nnc(SCC(=O)N(C2CCCCC2)C2CCCCC2)s1
 : 3%	-4%
COC(=O)C1=CN(Cc2ccc(OC)cc2)C=C(C(=O)OC)C1c1ccccc1OCc1ccccc1
 : 7%	-2%
COCCn1c(-n2nc(C)c(C)c2C)nc2c1c(=O)n(CCN1CCCCC1)c(=O)n2C
 : 7%	-3%
CC(=O)Nc1ccc(OCC(C)C)cc1
 : 11%	2%
O=C(CSc1nc2ccccc2nc1Cc1ccccc1)N1CCN(c2ccccc2)CC1
 : -1%	-13%
Cc1ccc(NC(=O)CN2CCN(C(=O)NCc3ccc(C)c(F)c3)CC2)cc1
 : 16%	12%
CN(C)CC(NC(=O)CNC(=O)NCc1ccccc1)c1ccccc1 (stereo not given)
 : 1%	15%
Cc1ccc(S(=O)(=O)N2CCCCC2)cc1NC(=O)c1nn(C)c(=O)c2ccccc12
 : -7%	0%
O=C(NCCc1ccc(F)cc1)N1CCc2sccc2C1
 : 9%	191%[activator]
CC(=O)N1CCN(C(=O)Cn2ccc3cc(OCc4ccccc4)ccc32)CC1
 : 13%	196%[activator]
C#CCNC(=O)c1cc(-c2ccc3c(c2)OCCO3)nc2ccccc12
 : 22%	0%
C(=C\c1ccccc1)/CN(C/C=C/c1ccccc1)CCN1CCOCC1
 : 48%[activator][1.06 µM]	-15%
CCOCCn1c(N2CCN(Cc3ccc(C)cc3)CC2)nc2c1c(=O)[nH]c(=O)n2C
 : -11%	-12%
CCCCOc1ccc(C(C)NC(=O)CN2C(=O)CSc3ccc(S(=O)(=O)N4CCOCC4)cc32)cc1 (stereo not given)
 : 2%	-29%
CCNC(=O)C(C)NC(=O)CCc1nc(-c2ccccc2)c(-c2ccccc2)o1 (stereo not given)
 : 10%	18%
Cc1ccc(-n2c(SCC(=O)Nc3ccccc3Cl)nc3c(=O)[nH]cnc32)cc1
 : 5%	5%
CCCCn1nc(C(=O)Nc2ccc(OCC(=O)NCC)cc2)c2ccccc2c1=O
 : 57%[activator]	52%[activator]
COc1ccccc1C(=O)CC1(O)C(=O)N(Cc2ccccc2)c2ccc(Br)cc21 (stereo not given)
 : 182%[activator]	22%

The closing 4 compounds of the part before open the next one:
Every second line gives: 2A Renilla	2A firefly
CCNC(=O)C(C)NC(=O)CCc1nc(-c2ccccc2)c(-c2ccccc2)o1 (stereo not given)
 : 10%	18%
Cc1ccc(-n2c(SCC(=O)Nc3ccccc3Cl)nc3c(=O)[nH]cnc32)cc1
 : 5%	5%
CCCCn1nc(C(=O)Nc2ccc(OCC(=O)NCC)cc2)c2ccccc2c1=O
 : 57%[activator]	52%[activator]
COc1ccccc1C(=O)CC1(O)C(=O)N(Cc2ccccc2)c2ccc(Br)cc21 (stereo not given)
 : 182%[activator]	22%
O=C(CSc1ncc(-c2cccc(Br)c2)o1)NC1CCCCC1
 : -2%	0%
Cc1cccc(C)c1OC(=O)CSc1nnc(-c2cccs2)o1
 : 98%[activator]	-21%
O=C(CN1C(=O)C2CCCCN2c2ccc(C(=O)N3CCCC3)cc21)NCc1cccc(F)c1 (stereo not given)
 : 63%[activator]	-10%
CCOc1ccc2c(=O)c(Oc3ccccc3OC)coc2c1
 : -3%	10%
FC(F)Sc1nnc(-c2ccccc2)c2ccccc12
 : ?	?
COC(=O)CNC(=O)c1cc2occc2n1Cc1ccccc1
 : -3%	7%
COc1ccc(-c2cccc(NS(=O)(=O)c3cccs3)c2)nn1
 : 266%[activator]	42%[activator]
Cc1ccc(-c2nc3ncccc3o2)cc1NC(=O)c1ccc(-c2ccc(Cl)cc2)o1
 : -8%	-1%
C=CCNC(=O)COC(=O)c1cc(C)nc2ccccc12
 : -9%	-11%
COC(CNC(=O)c1ccc(COc2cccc3c2OC(C)(C)C3)cc1)OC
 : 5%	4%
